From PubChem BioAssay
PV pol inh: inhibitors of poliovirus RNA polymerase binding and polymerization; AID 588519; poliovirus polymerase elongation, fluorescence polarization; stronger effect = lower value; P03300; 150,000 compounds, 0.66% hits; % elongation, % (compound at 16.7 µg/mL); in the data active = % elongation below about 90%; also: some results filed as inactive read as strong as hits
Target sequence (P03300 1749-2209 limits assumed): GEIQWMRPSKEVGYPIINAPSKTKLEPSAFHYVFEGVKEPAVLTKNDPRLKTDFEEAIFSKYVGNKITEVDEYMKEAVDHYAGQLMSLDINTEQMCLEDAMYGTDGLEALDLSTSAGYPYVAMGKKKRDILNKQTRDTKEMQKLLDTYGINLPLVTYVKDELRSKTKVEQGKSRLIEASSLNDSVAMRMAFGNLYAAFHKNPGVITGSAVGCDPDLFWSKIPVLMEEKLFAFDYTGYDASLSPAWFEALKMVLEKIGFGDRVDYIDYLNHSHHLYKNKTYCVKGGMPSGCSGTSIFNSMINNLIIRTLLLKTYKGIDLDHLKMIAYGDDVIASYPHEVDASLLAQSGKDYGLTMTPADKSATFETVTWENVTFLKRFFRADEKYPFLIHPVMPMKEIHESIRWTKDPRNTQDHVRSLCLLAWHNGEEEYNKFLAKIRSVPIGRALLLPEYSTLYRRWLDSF
PV pol inh intensity: recorded beside PV pol inh, whose call it bears; % elongation; measured here: total intensity read-out; formula for this scale not given here;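 total fluorescence in place of polarization; lower means less elongation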
Starred values were filed as active, the others as inactive.

molecule,PV pol inh,PV pol inh intensity
Cc1cccc(NC(=O)C2CCC(CNS(=O)(=O)c3ccc(Br)s3)CC2)c1 (stereo not given),103.0,108.0
COCCCNC(=O)CCC(=O)NNc1nc2ccccc2c2nc(-c3ccccc3)nn12,106.0,104.0
Cc1ccc(Cc2c(C)nc3nc(SCC(=O)NCCC(C)C)nn3c2C)cc1,107.0,111.0
CC1CN(C(=O)CCC(=O)NCc2cccs2)c2cc(Cl)ccc2O1 (stereo not given),110.0,107.0
COc1ccc(CNC(=O)Cc2c(C)c3c(O)cc(C)cc3oc2=O)cc1,112.0,109.0
CCOC(=O)c1cc2c(=O)n3ccccc3nc2n(CC2CCCO2)c1=NC(=O)c1ccc(OC)cc1OC (stereo not given),100.0,104.0
COc1ccc(-c2nnn3c2nc(NCc2ccccc2)c2ccccc23)cc1,104.0,110.0
O=C(CN1C(=O)c2cccnc2Oc2ccc(Cl)cc21)NCCc1ccccc1,108.0,101.0

More structures.
molecule,PV pol inh,PV pol inh intensity
COC(=O)CCCCCn1c(-c2ccccc2)cn2c3c(=O)n(C)c(=O)n(C)c3nc12,108.0,106.0
O=C(COc1cccc(Cl)c1)N1CCC(c2nc3ccccc3o2)CC1,106.0,113.0
CS(=O)(=O)c1ncc(N(Cc2ccco2)Cc2cccs2)c(C(=O)Nc2ccccc2F)n1,107.0,109.0
CCOc1ccccc1C(=O)Nc1ccc(-n2nncc2-c2ccccc2)cc1,103.0,103.0
COc1ccccc1NC(=O)c1ccc2c(Cl)c3c(nc2c1)CCCC3,109.0,110.0
Cc1ccc(Cl)cc1N1CCN(C(=O)c2ccc3nc(N4CCC(C)CC4)sc3c2)CC1,106.0,107.0
Cc1cccc(C)c1Nc1sc(C(=O)c2ccccc2)c(N)c1S(=O)(=O)c1ccccc1,112.0,132.0
CN(C)c1ccc(NC(=O)CSC2=Nc3ccccc3C3=NC(CCC(=O)NCc4cccs4)C(=O)N23)cc1 (stereo not given),111.0,112.0

Other records follow:
molecule,PV pol inh,PV pol inh intensity
COc1ccc2c(c1)c1c(c(=O)n(-c3ccc(F)c(Cl)c3)c(=O)n1CC(=O)N1CCCC1)n2C,109.0,105.0
Cc1ccc2oc(=O)n(CCNC(=O)Nc3ccc(Cl)cc3)c2c1,105.0,110.0
COc1ccc(-c2cn3nc(N4CCC(C(=O)Nc5ccc(C)cc5)CC4)sc3n2)cc1,112.0,101.0
CC1CCCCN1C(=O)CSc1n[nH]c(-c2ccccc2)n1 (stereo not given),115.0,110.0
CC(C)NC(=O)CCC(=O)N1Cc2ccccc2Oc2ncccc21,112.0,114.0
O=C(CCn1cnnn1)Nc1ccc(F)cc1,106.0,107.0
COc1ccc(-n2c(SCCC(C)C)nc3sc4c(c3c2=O)CC(C(C)C)OC4)cc1 (stereo not given),104.0,109.0
Cc1ccc(C)c(N2CCN(C(=O)CN3C(=O)COc4ccc(S(=O)(=O)N5CCCC5)cc43)CC2)c1,103.0,108.0

(list continues)
molecule,PV pol inh,PV pol inh intensity
Cc1ccc2nc(-c3cccc(NC(=O)CSc4ccc(Cl)cc4)c3)oc2c1,108.0,107.0
Cc1ccc(C)c(N2CCN(C(=O)c3cc4c(=O)n(Cc5cccs5)ccc4nc3C)CC2)c1,107.0,105.0
CCOC(=O)c1ccc(NC(=O)CN2C(=O)COc3ccc(Cl)cc32)cc1,106.0,110.0
COc1ccc(-c2ccc(=O)n(CC(=O)NCCc3ccccc3)n2)cc1,100.0,108.0
CCOc1ccc(CNCCSc2nnnn2C)cc1,104.0,106.0
CCc1ccc(NC(=O)C2CCCN(S(=O)(=O)c3cccc4cccnc34)C2)cc1 (stereo not given),105.0,110.0
CCCCN(C)CCCNC(=O)CN1C(=O)COc2ccc(S(=O)(=O)N3CCC(C)CC3)cc21,106.0,105.0
Cn1ccnc1SCC(=O)Nc1cc(Cl)ccc1Cl,106.0,108.0

Retrieved one by one from the list above (four):
molecule,PV pol inh,PV pol inh intensity
CCc1ccc(NC(=O)C2CCCN(S(=O)(=O)c3cccc4cccnc34)C2)cc1 (stereo not given),105.0,110.0
Cc1ccc2nc(-c3cccc(NC(=O)CSc4ccc(Cl)cc4)c3)oc2c1,108.0,107.0
Cc1ccc(C)c(N2CCN(C(=O)c3cc4c(=O)n(Cc5cccs5)ccc4nc3C)CC2)c1,107.0,105.0
COc1ccc(-c2ccc(=O)n(CC(=O)NCCc3ccccc3)n2)cc1,100.0,108.0

Some of the entries above, set out differently.
> COc1ccc(-c2nnn3c2nc(NCc2ccccc2)c2ccccc23)cc1
  PV pol inh: 104.0
  PV pol inh intensity: 110.0
> O=C(CN1C(=O)c2cccnc2Oc2ccc(Cl)cc21)NCCc1ccccc1
  PV pol inh: 108.0
  PV pol inh intensity: 101.0
> COC(=O)CCCCCn1c(-c2ccccc2)cn2c3c(=O)n(C)c(=O)n(C)c3nc12
  PV pol inh: 108.0
  PV pol inh intensity: 106.0
> O=C(COc1cccc(Cl)c1)N1CCC(c2nc3ccccc3o2)CC1
  PV pol inh: 106.0
  PV pol inh intensity: 113.0

Additional records:
molecule,PV pol inh,PV pol inh intensity
Cc1cc(C)c(NC(=O)C2CCCN(S(=O)(=O)c3c(C)noc3C)C2)c(C)c1 (stereo not given),106.0,106.0
Cc1ccc(C)c(NC(=O)Cn2c(=O)n(Cc3ccc4c(c3)OCO4)c(=O)c3oc4ccccc4c32)c1,109.0,115.0
Cc1ccc(NC(=O)c2ccc(NC(=O)N3CCSc4ncccc43)cc2)cc1Cl,104.0,93.0
Cc1ccc2oc(=O)c3cc(C(=O)Nc4ccccc4C(N)=O)sc3c2c1,105.0,107.0
CCc1cccc(NC(=O)Nc2ccc3c(c2)N(C)C(=O)c2ccccc2S3)c1,106.0,109.0
COc1ccc(Br)cc1CNC(=O)c1cc(=O)[nH]c2ccc(S(=O)(=O)N3CCCC3)cc12,111.0,98.0
Cc1cc(C)c(NS(=O)(=O)c2cc(-c3cnc(C4CC4)o3)ccc2C)c(C)c1,103.0,102.0
CCC(C)NC(=O)c1cnn(-c2ccc(Cl)cc2)c1C1CCN(C(=O)OC(C)(C)C)CC1 (stereo not given),110.0,115.0

New compounds follow
molecule,PV pol inh,PV pol inh intensity
Cc1ccc(CNC(=O)CSc2c(C(C)C)cnc3c2c(=O)n(C)c(=O)n3C)cc1,110.0,114.0
COc1cccc(CNC(=O)c2ccc3c(c2)sc2nc(-c4ccccc4)cn23)c1OC,107.0,107.0
CCC1=C(c2ccc(C)cc2)S(=O)(=O)N=C1N1CCC(C(=O)N2CCCCC2)CC1,108.0,118.0
CCC(C)NC(=O)Cn1c(=O)n(CCCCCC(=O)Nc2ccccc2)c(=O)c2sccc21 (stereo not given),110.0,112.0
Cc1ccc(CNC(=O)CCc2c(C)nn(-c3ccc(N4CCCC4)nn3)c2C)cc1,118.0,110.0
COc1ccc(C(=O)Nc2ccc3nc(SCC(=O)N4CCCC4)sc3c2)cc1,103.0,108.0
CCOC(=O)N1CCc2c(sc3c2c(=O)n(CCc2ccccc2)c(=O)n3Cc2cc(C)ccc2C)C1,101.0,104.0
CCOC(=O)c1c(C)[nH]c(C)c1S(=O)(=O)N1CCC(C(=O)Nc2cc(C)ccn2)CC1,109.0,106.0

Next records follow.
molecule,PV pol inh,PV pol inh intensity
Cc1ccc(S(=O)(=O)Nc2cc3c(cc2N2CCOCC2)n(C)c(=O)n3C)c(C)c1,108.0,111.0
O=C(Cn1nc(Cc2cccnc2)c2ccccc2c1=O)N1CCN(c2ccc(F)cc2)CC1,107.0,110.0
Cc1cccc(C)c1NC(=O)C(=O)NCC(c1cccnc1)N1CCc2ccccc21 (stereo not given),107.0,101.0
Cc1c(Cl)cccc1NC(=O)C(C)N(c1ccccc1)S(C)(=O)=O (stereo not given),105.0,111.0
COc1ccc(NC(=O)CCc2c(C)nc3cc(-c4cccc(F)c4)nn3c2C)cc1Cl,105.0,107.0
CCOC(=O)c1c(C)oc2ncnc(Nc3ccc(F)cc3Cl)c12,99.0,94.0
Cc1ccccc1-c1nc(CS(=O)CC(=O)N2CCN(c3cc(Cl)ccc3C)CC2)c(C)o1 (stereo not given),110.0,108.0
CCOC(=O)c1cccc(NC(=O)c2ccc3c(Cl)c4c(nc3c2)CCC4)c1,101.0,102.0

Carrying on.
molecule,PV pol inh,PV pol inh intensity
O=C(c1ccc(F)cc1F)N1CCC(c2noc(-c3ccc(S(=O)(=O)N4CCCC4)cc3)n2)CC1,109.0,112.0
CCc1nn2c(=O)cc(COC(=O)C(CC)c3ccccc3)nc2s1 (stereo not given),107.0,105.0
Cc1ccc(-c2noc(CNC(=O)COc3cc(C)c(Br)c(C)c3)n2)cc1,108.0,112.0
CCc1ccc(C2CC(=O)c3c([nH]c(C(=O)OCC4CCCCC4)c3C)C2)cc1 (stereo not given),109.0,107.0
Cc1ccc(NS(=O)(=O)c2c(C)nc3sc(C)c(C)n3c2=O)cc1F,105.0,108.0
O=C(CSc1n[nH]c(-c2ccc(F)cc2)n1)N1CCN(c2ccc(F)cc2)CC1,114.0,116.0
COc1ccc(C(=O)Nc2nnc(C)s2)cc1,107.0,112.0
CCc1ccc2c(c1)NC(c1cccs1)=NC(c1ccc(F)cc1)=N2,104.0,99.0

Remaining list, next part.
molecule,PV pol inh,PV pol inh intensity
COc1cccc(-n2ccnc2SCC(=O)Nc2cccc(C)c2C)c1,110.0,108.0
Cc1ccc(NC(=O)Cn2c(=O)ccc3cc(S(=O)(=O)N4CCC(C)CC4)ccc32)c(C)c1,100.0,105.0
COc1ccc(Cl)cc1NC(=O)c1cn(C2CCCCC2)c(=O)c2c1c1ccccc1n2C,110.0,115.0
Cc1cccn2c(=O)cc(COc3ccc(NC(=O)c4cccc(F)c4)cc3)nc12,105.0,108.0
CC(=O)Nc1ccccc1-c1nc2ccccc2n(CC(=O)c2ccc(C)c(C)c2)c1=O,106.0,101.0
O=C(c1ccc2c(c1)N(Cc1ccc(F)cc1)CCS2)N1CCN(c2ccccc2)CC1,105.0,106.0
CCOC(=O)c1c(C)[nH]c(C)c1S(=O)(=O)NCC(=O)N(C)c1ccc(C)c(C)c1,107.0,104.0
Cc1ccc(CN(C(=O)COc2cccc([N+](=O)[O-])c2)c2ccccn2)cc1,112.0,108.0

Going on with the list.
molecule,PV pol inh,PV pol inh intensity
Cc1cc(C)cc(NC(=O)N2CCC(C(N)=O)(N3CCCCC3)CC2)c1,107.0,107.0
O=C(Nc1cccc(C(F)(F)F)c1)c1cc2nc(-c3ccco3)cc(C(F)(F)Cl)n2n1,106.0,110.0
NS(=O)(=O)c1ccc(NC(=O)c2ccc3c(c2)CCN3S(=O)(=O)c2ccccc2)cc1,103.0,102.0
CCCCN(CC)C(=O)Cn1ncc2c3ccccc3n(CCC)c2c1=O,113.0,110.0
Cc1cccc(S(=O)(=O)c2cn(C)c3cc(N4CCCCCC4)c(F)cc3c2=O)c1,102.0,98.0
CCc1ccc(CNC(=O)CCn2c(=O)c3cccn3c3ccc(F)cc32)cc1,108.0,95.0
COc1cccc(NC(=O)Cn2c(=O)n(CCCCC(=O)NCc3ccc4c(c3)OCO4)c(=O)c3ccccc32)c1,110.0,113.0
Cc1cc(=O)n(CC(=O)N2CCN(c3ccc(F)cc3)CC2)c2c1c(C)nn2C,97.0,105.0

Next entries follow.
molecule,PV pol inh,PV pol inh intensity
Cc1ccc(NC(=O)CCSc2nc(-c3ccc4c(c3)OCO4)cc(C(F)(F)F)n2)cc1,106.0,110.0
COc1ccc2c(Sc3ccccc3)c(C(=O)NCCN(C)C)[nH]c2c1,99.0,103.0
Cc1cccc(C)c1-n1ncc(C(=O)N2CCN(c3ccccc3)CC2)c1C1CCN(C(=O)OC(C)(C)C)CC1,113.0,114.0
COc1ccc(Cn2c(C(=O)O)c(CNC3CCCCCC3)c3ccc(OC)cc32)cc1,108.0,92.0
CCOc1ccc2nc(N3CCCC(C(=O)Nc4cc(C)ccc4C)C3)sc2c1 (stereo not given),107.0,107.0
CCOc1ccccc1Nc1nc2ccccc2nc1NS(=O)(=O)c1ccc(Cl)cc1,103.0,107.0
Cc1ccc(CNC(=O)C2CCN(S(=O)(=O)c3cc(-c4noc(C)n4)ccc3C)CC2)cc1,112.0,110.0
Cc1ccc2c(c1)C(=O)OC(C(=O)Nc1ccc(C(=O)O)cc1)C2 (stereo not given),100.0,104.0

Other structures.
molecule,PV pol inh,PV pol inh intensity
CCCn1c2ccccc2c2cnn(CC(=O)N(C)c3ccc(F)cc3)c(=O)c21,112.0,99.0
COC(=O)c1c(SCC(=O)Nc2cccc(C(F)(F)F)c2)[nH]c2ccccc2c1=O,112.0,109.0
O=C1CN(C(=O)Nc2ccccc2Cl)C(c2ccccc2)c2c(sc3c2CCCC3)N1 (stereo not given),109.0,112.0
Cc1cc(C)c2c(-n3cccc3)c(C(=O)NCCc3ccc(Cl)cc3)sc2n1,114.0,112.0
Cc1cccc(C)c1NC(=O)c1csc2c1CCCC2,101.0,104.0
COc1ccc(-c2nc3n(n2)C(c2ccc(O)cc2)C(C(=O)Nc2cccnc2)=C(C)N3)cc1OC (stereo not given),102.0,102.0
COc1cc2c(cc1OC)CN(C(=O)Nc1ccccc1)CC2,115.0,112.0
CC1CCCCN1c1cc2c(cc1F)c(=O)c(S(=O)(=O)c1ccccc1)cn2Cc1ccccc1 (stereo not given),103.0,95.0

New compounds follow:
molecule,PV pol inh,PV pol inh intensity
Cc1ccc(-n2c(=O)c3c(c4cc(C)ccc4n3C)n(CC(=O)NCCC3=CCCCC3)c2=O)cc1,103.0,104.0
Cc1cccc(C(=O)N2CCNC(=O)C2CC(=O)Nc2ccc(F)cc2)c1 (stereo not given),107.0,111.0
CCOc1ccc(C2c3c(oc4ccc(C)cc4c3=O)C(=O)N2CCCN2CCOCC2)cc1 (stereo not given),106.0,115.0
CCN1C(=O)C(O)(c2c[nH]c3ccccc23)c2cc(Br)ccc21 (stereo not given),107.0,108.0
Cc1cc2oc(C(=O)Nc3sc4c(c3C(=O)NCC3CCCO3)CCC4)cc(=O)c2cc1C (stereo not given),109.0,112.0
COc1ccccc1NC(=O)CSc1nc(-c2cccc(Cl)c2)nc2c1Cc1c(CO)cnc(C)c1O2,100.0,105.0
O=C(NCCc1ccc(Cl)cc1)c1ccc(Cn2c(=O)[nH]c3ccccc3c2=O)cc1,108.0,100.0

Only part of the results is shown; count on the stated rates, not on these rows.
